SmPrx2 inh = inhibitors of Schistosoma mansoni peroxiredoxin 2; S. mansoni Prx2 activity coupled to TGR/GSH (TGR is thioredoxin glutathione reductase), NADPH fluorescence loss, qHTS; some inactives read as strong as hits; Potency, µM; 65,000 tested, 0.07% active; AID 448; active means full or partial inhibition curve with a strong effect at the top dose; inconclusive means weaker partial or single-point curve; inactive means no accepted curve; further: series up to 57 µM; many of its hits are not listed in these tables
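Purified S. mansoni TGR and Prx2 in pH 7.4 phosphate buffer with EDTA and Tween-20 were preincubated with compounds for 15 min. Further NADPH/GSH was added, then a 2.5 mM H2O2 aliquot initiated turnover, followed kinetically by NADPH fluorescence.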
Anthrax LT inh = anthrax lethal toxin internalization inhibition; Cells, anthrax lethal toxin internalization, FRET ratio (460/530); Potency, µM (series often up to 40 µM), inactives show at the top dose activity change, negative = inhibition, actives largely listed as inhibitors; 70,000 tested, 0.67% active; AID 912; active = well fitted falling ratio curve with the 530 nm signal flat; inconclusive = other ratio curves, or a change in one channel alone; inactive = flat curves in the ratio and both channels; the % refers to the ratio; further: on the % scale 0 is the no-effect control and ±100 the full control effect; nearly all actives have a fitted effect of over 50% in size; tested in ME-180 cells; beta-lactamase reporter
Active calls of the source: *; [ ] = dose if it differs, or a comment. Potency means the concentration at half of the fitted maximal effect. Only part of the results is shown (hit frequency here may not be typical).

Results for C[C@H](CO)NC(=O)[C@@H]1C[C@H]1[C@@H](NP(=O)(c1ccccc1)c1ccccc1)c1ccccc1 ?
SmPrx2 inh: >11; Anthrax LT inh: 10%

Results for COc1ccc2sc(C)nc2c1NC(C)=O ?
SmPrx2 inh: >57; Anthrax LT inh: 7%

Results for COCCN1Cc2cccc(C(=O)Nc3c(C)cc(C)cc3C)c2C1=O ?
SmPrx2 inh: >57; Anthrax LT inh: 7%

How did CC(=O)/C(C[N+]1(C)CCCCC1)=N\O do in these assays?
SmPrx2 inh: >57; Anthrax LT inh: 12%

Results for O=C(Nc1ccccc1)N(C1=NCCCCS1)c1ccccc1 ?
SmPrx2 inh: >57; Anthrax LT inh: 0%

How did O=C(Oc1ccccc1)N1CCC2(CC1)CCN(c1ccncc1)CC2 do in these assays?
SmPrx2 inh: >57; Anthrax LT inh: -7%

How did COc1ccc2c(c1)N(C(=O)CSc1n[nH]c(C)n1)C(C)(C)C=C2C do in these assays?
SmPrx2 inh: >57; Anthrax LT inh: 11%

What do the screens show for `COc1ccc(N2CSC3=C(C#N)C(c4ccc(OC)c(OC)c4)CC(=O)N3C2)c(OC)c1` (stereo not given)?
Anthrax LT inh: 5%

Results for C=CCNC(=O)C1CC(c2cccc(OC)c2)=NO1 (stereo not given) ?
SmPrx2 inh: >57; Anthrax LT inh: 16%

Results for O=C(c1cccnc1)N1CCC(c2nc3ccccc3[nH]2)CC1 ?
SmPrx2 inh: >57; Anthrax LT inh: -6%

Results for COc1ccccc1NC(=O)C(C)NS(=O)(=O)c1ccccc1 (stereo not given) ?
SmPrx2 inh: >57; Anthrax LT inh: 5%

How did CCc1cccc(NC(=O)Nc2cccs2)c1 do in these assays?
SmPrx2 inh: >57; Anthrax LT inh: inconclusive

Results for CCn1c(SCC(=O)Nc2cc(F)ccc2C)nnc1-c1ccccc1O ?
SmPrx2 inh: >57; Anthrax LT inh: -15%

Results for C#CCCCO/N=C1/C[C@@H](O)[C@@H](O)[C@@H]2[C@@H]3C(=O)N(CC)C(=O)[C@H]3CC[C@@H]12 ?
Anthrax LT inh: 8%[8 µM]

What do the screens show for `COc1cccc(NC(=O)CSc2nc3n[nH]c(C)c3c(=N)n2-c2cccc(OC)c2)c1`?
SmPrx2 inh: >57; Anthrax LT inh: -7%

Continued; the last 6 above are carried over.
Results for O=C(c1cccnc1)N1CCC(c2nc3ccccc3[nH]2)CC1 ?
SmPrx2 inh: >57; Anthrax LT inh: -6%

Results for COc1ccccc1NC(=O)C(C)NS(=O)(=O)c1ccccc1 (stereo not given) ?
SmPrx2 inh: >57; Anthrax LT inh: 5%

How did CCc1cccc(NC(=O)Nc2cccs2)c1 do in these assays?
SmPrx2 inh: >57; Anthrax LT inh: inconclusive

Results for CCn1c(SCC(=O)Nc2cc(F)ccc2C)nnc1-c1ccccc1O ?
SmPrx2 inh: >57; Anthrax LT inh: -15%

Results for C#CCCCO/N=C1/C[C@@H](O)[C@@H](O)[C@@H]2[C@@H]3C(=O)N(CC)C(=O)[C@H]3CC[C@@H]12 ?
Anthrax LT inh: 8%[8 µM]

What do the screens show for `COc1cccc(NC(=O)CSc2nc3n[nH]c(C)c3c(=N)n2-c2cccc(OC)c2)c1`?
SmPrx2 inh: >57; Anthrax LT inh: -7%

Results for COc1ccc(CNc2ccc(-c3ccc(OC)cc3)nn2)cc1 ?
SmPrx2 inh: >57; Anthrax LT inh: 10%

How did COc1cccc(CNC(=O)CCNS(=O)(=O)c2cccs2)c1 do in these assays?
SmPrx2 inh: >57; Anthrax LT inh: 0%

Results for CC(=O)N1CC[N+](C)(C)CC1 ?
SmPrx2 inh: >57; Anthrax LT inh: inconclusive

How did CC(NC(=O)Cn1ccsc1=N)C12CC3CC(CC(C3)C1)C2 (stereo not given) do in these assays?
SmPrx2 inh: >57; Anthrax LT inh: inconclusive

Results for O=C(c1cccs1)N(Cc1nc2sc3c(c2c(=O)[nH]1)CCCC3)C1CCCC1 ?
SmPrx2 inh: >57; Anthrax LT inh: -19%

What do the screens show for `CN(C(=O)C(Cl)Cl)c1ccc(OC(=O)c2ccco2)cc1`?
SmPrx2 inh: >57; Anthrax LT inh: 4%[3.58 µM]

Results for O=c1/c(=C/c2cccc3ccccc23)sc2ncnn12 ?
SmPrx2 inh: >57; Anthrax LT inh: -2%

Results for CCC(C)(C(=O)NC1CCCC1)N(C(=O)c1cnccn1)c1c(C)n(C)n(-c2ccccc2)c1=O (stereo not given) ?
SmPrx2 inh: >57; Anthrax LT inh: 10%

Results for CCn1c(SCC(=O)Nc2cccc(NC(C)=O)c2)nnc1C(C)C ?
SmPrx2 inh: >57; Anthrax LT inh: -18%

What do the screens show for `O=C(c1ccco1)N1CCN(C(c2ccccc2F)c2nnnn2Cc2cccs2)CC1` (stereo not given)?
SmPrx2 inh: >57; Anthrax LT inh: 9%

Results for Cc1cc(C(=O)CSc2nc3ccccc3c(=O)[nH]2)c(C)n1C ?
SmPrx2 inh: >57; Anthrax LT inh: -4%

How did CCNC(=O)CCCOc1ccc(Cl)cc1Cl do in these assays?
Anthrax LT inh: 1%

What do the screens show for `Cn1c(=O)c2[nH]c(CCCCC(=O)O)nc2n(C)c1=O`?
SmPrx2 inh: >57; Anthrax LT inh: 11%[8 µM]

What do the screens show for `CC1CC(N(C(=O)C2CC2)c2ccccc2)c2ccccc2N1C(=O)C1CC1` (stereo not given)?
SmPrx2 inh: >57; Anthrax LT inh: -20%

Results for CCCc1nnc(NC(=O)CC(=O)OCC)s1 ?
Anthrax LT inh: 12%

How did Cc1cc2oc(=O)c3c(c2cc1OC(=O)c1ccco1)CCCC3 do in these assays?
SmPrx2 inh: >57; Anthrax LT inh: -10%

What do the screens show for `COC(=O)c1c(C)oc(C)c(C(=O)OC)c1=O`?
SmPrx2 inh: >57; Anthrax LT inh: -10%

How did CC(=O)NCCn1c(SCC(=O)OCc2ccccc2)nc2ccccc2c1=O do in these assays?
SmPrx2 inh: >57; Anthrax LT inh: inconclusive

How did COc1ccc(-c2cc(NCc3ccccn3)n3ncnc3n2)cc1 do in these assays?
SmPrx2 inh: >57; Anthrax LT inh: 26%

How did CC(C)Cc1nc2oc3c(N4CCN(C)CC4)ncnc3c2c2c1CCCC2 do in these assays?
SmPrx2 inh: >57; Anthrax LT inh: inconclusive

Results for Cc1csc2nnc(N)n12 ?
SmPrx2 inh: >57; Anthrax LT inh: inconclusive

What do the screens show for `Cc1cccc(NC(=O)COc2ccccc2)c1`?
SmPrx2 inh: >57; Anthrax LT inh: -6%

What do the screens show for `CC(C)(C)Oc1ncc(Br)c(OC(C)(C)C)n1`?
SmPrx2 inh: >57; Anthrax LT inh: 5%

What do the screens show for `COc1ccc(OC)c(-n2c(-c3cccc(O)c3)n[nH]c2=S)c1`?
SmPrx2 inh: >57; Anthrax LT inh: -13%

Results for CN(c1ccc(C(=O)N2CCc3ccccc3C2)cc1)S(C)(=O)=O ?
SmPrx2 inh: >57; Anthrax LT inh: 14%

What do the screens show for `Cn1nnc(NC(=O)c2cccc(F)c2)n1`?
SmPrx2 inh: >57; Anthrax LT inh: 11%

How did N#Cc1cccc(-c2nc(NCc3cccs3)c3ccccc3n2)c1 do in these assays?
SmPrx2 inh: >57; Anthrax LT inh: inconclusive

Results for CS(=O)(=O)N1CCC2(CCCN(c3ncccn3)C2)CC1 ?
SmPrx2 inh: >57; Anthrax LT inh: 9%

How did CCOC(=O)Cc1csc(NC(=O)c2csc(C)c2)n1 do in these assays?
SmPrx2 inh: >57; Anthrax LT inh: 9%

What do the screens show for `O=P(O)(CCc1ccccc1)CN1CCCCC1`?
SmPrx2 inh: >57; Anthrax LT inh: -3%

What do the screens show for `Cc1cccc2cc(CN(Cc3cccs3)C3(c4nnnn4C4CCCC4)CCCC3)c(=O)[nH]c12`?
SmPrx2 inh: >57; Anthrax LT inh: -3%

How did O=C1[C@@H]2[C@H](Cc3ccc(O)cc3)N[C@]3(C(=O)Nc4ccccc43)[C@@H]2C(=O)N1c1ccc(F)cc1 do in these assays?
SmPrx2 inh: >57; Anthrax LT inh: inconclusive

What do the screens show for `CN(CC(=O)N1CCN(c2ccccc2)CC1)S(=O)(=O)c1cnc[nH]1`?
SmPrx2 inh: >57; Anthrax LT inh: -4%

Results for CC(=O)c1c(C)[nH]c(C(=O)OCCCCN2C(=O)c3ccccc3C2=O)c1C ?
SmPrx2 inh: >57; Anthrax LT inh: inconclusive

How did CN(C)CCCn1c(N)c(C#N)c2nc(C#N)c(C#N)nc21 do in these assays?
SmPrx2 inh: >57; Anthrax LT inh: inconclusive

How did Nc1cc([N+](=O)[O-])ccc1C(=O)O do in these assays?
Anthrax LT inh: -6%

Results for CCc1ccc(C2CC(c3cccc(Cl)c3)n3nc(N)nc3N2)cc1 (stereo not given) ?
SmPrx2 inh: >57; Anthrax LT inh: -14%

Results for Brc1c(CSc2nnc(-c3ccco3)o2)nc2ccccn12 ?
SmPrx2 inh: >57; Anthrax LT inh: 3%

What do the screens show for `C/C(=C\C(=O)c1ccc(F)cc1)Nc1ccc(N2CCOCC2)cc1`?
SmPrx2 inh: >57; Anthrax LT inh: -11%

Results for COc1cccc(-n2ccnc2SCC(=O)Nc2ccccc2)c1 ?
SmPrx2 inh: >57; Anthrax LT inh: -6%

How did CCOC(=O)C1CCCN(C(=O)Cc2c(F)cccc2Cl)C1 (stereo not given) do in these assays?
SmPrx2 inh: >57

How did COc1ccc(-c2nc3cnc(N4CCNCC4)nc3n(Cc3cccc(OC)c3)c2=O)cc1 do in these assays?
SmPrx2 inh: >57; Anthrax LT inh: inconclusive

What do the screens show for `O=C(Nc1ccc([As](=O)(O)O)cc1)Nc1cccc(Cl)c1Cl`?
SmPrx2 inh: >57; Anthrax LT inh: -10%[8 µM]

Results for COc1ccc2c(C)c(Cl)c(=O)oc2c1 ?
Anthrax LT inh: -5%

How did O=C(NCC1CCCO1)C1CCCN1C(=O)NC1CCCCC1 (stereo not given) do in these assays?
SmPrx2 inh: >57; Anthrax LT inh: 6%

Results for Cc1cc(NC(=O)c2cccc(S(=O)(=O)N3CC(c4ccccc4)CC3=O)c2)no1 (stereo not given) ?
SmPrx2 inh: >57; Anthrax LT inh: inconclusive

What do the screens show for `Cn1c(Cn2c(=O)sc3ccccc32)nnc1SCC(=O)NCc1ccccc1`?
SmPrx2 inh: >57; Anthrax LT inh: 3%

How did COc1ccc(Nc2ncnc3c2oc2ccccc23)cc1 do in these assays?
Anthrax LT inh: -20%

Results for COc1ccc(C(=O)N2CCC3(CCCN(Cc4ccncc4)C3)CC2)cc1 ?
SmPrx2 inh: >57; Anthrax LT inh: 20%

What do the screens show for `COc1ccc(N2CCN(CCCN)CC2)cc1`?
SmPrx2 inh: >57; Anthrax LT inh: -9%

Results for O=C(OCc1c(F)cccc1Cl)c1cnccn1 ?
SmPrx2 inh: >57; Anthrax LT inh: 10%

Results for COc1ccc(N(C)S(=O)(=O)c2c(C)[nH]c(=O)[nH]c2=O)cc1 ?
SmPrx2 inh: >57; Anthrax LT inh: 3%

Results for O=C(c1ccc(CS(=O)(=O)c2c(Cl)cccc2Cl)o1)N1CCN(c2ccccn2)CC1 ?
SmPrx2 inh: >57; Anthrax LT inh: -25%

What do the screens show for `O=C(c1cc2c(s1)-c1ccccc1OC2)N1CCCC1`?
Anthrax LT inh: -22%

What do the screens show for `COc1ccc(Cl)cc1-c1nc(-c2ccc(NC(=O)c3ccncc3)cc2)no1`?
SmPrx2 inh: >57; Anthrax LT inh: inconclusive

How did CC(C)N(Cc1cc2ccccc2[nH]c1=O)C(=O)C(C)(C)C do in these assays?
SmPrx2 inh: >57; Anthrax LT inh: -2%

What do the screens show for `N[C@H]1C[C@H]1c1ccccc1`?
SmPrx2 inh: >57; Anthrax LT inh: 7%[3.58 µM]

What do the screens show for `COc1ccc(CCNC(=O)CSc2nnc(CNC(=O)c3ccccc3F)o2)cc1OC`?
SmPrx2 inh: >57; Anthrax LT inh: 3%

Results for CCCn1c(N2CCN(CC(=O)c3c[nH]c4ccccc34)CC2)nc2c1c(=O)[nH]c(=O)n2C ?
SmPrx2 inh: >57; Anthrax LT inh: inconclusive

Results for C=CCc1cccc2cc(C(=O)NC(C)(C)C)c(=O)oc12 ?
SmPrx2 inh: >57; Anthrax LT inh: 14%

Results for CCCCS(=O)(=O)NC1=NCN(CCOC(=O)c2ccccc2)CN1 ?
SmPrx2 inh: >57; Anthrax LT inh: 8%

Results for Cc1ccc(C(=O)CC2(O)C(=O)N(CN3CCOCC3)c3ccccc32)cc1 (stereo not given) ?
SmPrx2 inh: >57; Anthrax LT inh: -17%

How did CCOc1ccc(C2N(c3ccc(Cl)cc3)C(=O)C3CCCN32)cc1OC (stereo not given) do in these assays?
SmPrx2 inh: >57; Anthrax LT inh: 7%

Results for COc1ccc(CCc2nc(-c3ccc(-n4cccc4)cc3)no2)cc1 ?
SmPrx2 inh: >57; Anthrax LT inh: -14%

Bioassay records deposited in PubChem by National Center for Advancing Translational Sciences (NCATS).
